Screens (PubChem)
FGF22 binding = shifts melting point of recombinant human FGF22 | Q9HCT0 | recombinant FGF22 thermal shift, SYPRO orange fluorescence; percent of sucrose octasulfate shift, DMSO zero | calls only at 9.99 µM | 340,000 compounds, 1.5% hits;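 active means melting point raised past a set limit in the mean and every replicate; inconclusive means no clear call; three in four hits are not shown here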
Target sequence (Q9HCT0 whole entry, looked up): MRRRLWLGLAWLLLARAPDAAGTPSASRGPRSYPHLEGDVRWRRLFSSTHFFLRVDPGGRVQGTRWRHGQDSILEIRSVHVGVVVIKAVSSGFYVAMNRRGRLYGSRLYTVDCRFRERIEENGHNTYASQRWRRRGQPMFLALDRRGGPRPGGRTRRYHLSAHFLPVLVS
RanGTP-Impb inh = inhibitors of RanGTP-importin-beta interaction, primary screen, biochemical, FRET, CFP-Ran, YFP-importin-beta, homogeneous. cell-free CFP-Ran/YFP-importin-beta FRET ratio. AID 2216. 300,000 compounds, 1.1% hits. inhibition, % (concentration not given with the values);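 active means most replicates above 15%; inconclusive means exactly half above 15%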;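 further: 0% = DMSO wells and 100% = Ran loaded with GDP instead of GTP; wells of about 40 µL received 100 nL stock; the first replicate is given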
MLL AF4-AF9 inh = blocks AF4 peptide binding to human AF9 | inhibition, % at 10 µM | AlphaScreen, biotin-AF4 peptide binding to FLAG-AF9 | 350,000 compounds, 0.47% hits | P42568;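 active means every replicate reaching a set inhibition limit, whatever the replicate mean, cut at about 25% in these data; inconclusive means mean inhibition reaches that limit but some replicates miss it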;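 further: 0% = plate neutral control median and 100% = total signal loss; the record names both 10 and 1 µM as test concentration; the first replicate is given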
Target sequence (P42568 whole entry, looked up): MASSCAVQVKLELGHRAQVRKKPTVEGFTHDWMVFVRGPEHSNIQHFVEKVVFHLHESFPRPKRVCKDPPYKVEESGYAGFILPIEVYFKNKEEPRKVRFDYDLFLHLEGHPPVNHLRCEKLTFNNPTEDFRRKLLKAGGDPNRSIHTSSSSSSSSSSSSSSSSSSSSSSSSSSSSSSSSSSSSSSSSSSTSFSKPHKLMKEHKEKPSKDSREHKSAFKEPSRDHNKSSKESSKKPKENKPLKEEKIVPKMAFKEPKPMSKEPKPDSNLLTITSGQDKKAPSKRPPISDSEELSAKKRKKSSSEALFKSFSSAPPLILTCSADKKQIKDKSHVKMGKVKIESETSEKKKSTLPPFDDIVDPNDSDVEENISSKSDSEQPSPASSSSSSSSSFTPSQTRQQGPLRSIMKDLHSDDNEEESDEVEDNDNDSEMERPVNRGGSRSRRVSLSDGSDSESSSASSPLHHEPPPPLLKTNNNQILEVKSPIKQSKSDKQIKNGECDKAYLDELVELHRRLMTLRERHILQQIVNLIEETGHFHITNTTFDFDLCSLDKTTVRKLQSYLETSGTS
Beta cell apopt = beta cell apoptosis inhibition; 300,000 compounds, 0.8% hits; INS-1E cytokine-induced death, ATP luminescence, 48 h; percent of positive-control rescue, neutral wells zero; AID 435005; protection from apoptosis, % (concentration not given with the values);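 active means all replicates at 75% or more, or half of them and the mean; inconclusive means half reach 75% but not the mean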;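 further: 0% = cytokine-treated negative control wells and 100% = positive control rescue; higher means more ATP so stronger rescue from cytokine killing; wells of about 40 µL received 100 nL stock; the first replicate is given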
ALR inh = inhibitors of human sulfhydryl oxidase ALR. P55789. purified ALR, DTT oxidation, H2O2 HRP-luminol luminescence. inhibition, % (concentration not given with the values). 290,000 compounds, 3.8% hits;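 active means mean and each replicate at 75% or more; inconclusive means only one of the two met; inactive means neither met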;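 further: stock transfer was 7.5 nL into about 7.5 µL; 0% = neutral wells and 100% = wells with inactivated enzyme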
Target sequence (P55789 whole entry, looked up): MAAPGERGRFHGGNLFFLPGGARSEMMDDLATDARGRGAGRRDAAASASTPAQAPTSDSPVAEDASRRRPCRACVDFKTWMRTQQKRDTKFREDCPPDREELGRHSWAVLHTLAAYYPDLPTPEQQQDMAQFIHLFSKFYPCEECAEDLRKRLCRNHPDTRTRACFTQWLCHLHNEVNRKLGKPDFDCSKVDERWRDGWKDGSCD
T cruzi inh = T. cruzi replication inhibition | 300,000 compounds, 1.4% hits | T. cruzi beta-gal in NIH3T3, luminescence, 90 h | AID 1885 | inhibition, % (test concentration not listed);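 active means mean inhibition across valid replicates above about 55%, limit read from the data; inconclusive means mean below that limit but half or more replicates reach it; inactive means mean below it, under half of replicates reach it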;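 further: signal also drops with host cell toxicity which is not excluded here; 0% = plate median of DMSO wells and 100% = zero luminescence signal; higher percent means less beta-gal luminescence so fewer parasites; stock transfer was 50 nL into about 50 µL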
Calb FLC = affects C. albicans growth with fluconazole; C. albicans CaCi-2 (fluconazole-resistant clinical isolate) + fluconazole, Alamar Blue growth, 48 h; 300,000 compounds, 0.57% hits; growth inhibition, % (concentration not given with the values); AID 1979;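 active means most replicates above 75%; inconclusive means exactly half above 75%; inactive means most below 75%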;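 further: all wells also contain fluconazole at 8 µg/ml as a sub-toxic cotreatment; 0% = median of DMSO wells and 100% = median of geldanamycin control wells; wells of about 8 µL received 7.5 nL stock; the first replicate is given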
Ecoli rRNA inh = selective bacterial rRNA inhibition in E. coli; E. coli WT GFP vs humanized-ribosome RFP mutants, fluorescence, 24 h; stronger effect = lower value; DMSO median 0, no signal -100; GFP signal change (wild-type ribosome), % (no concentration beside the values); 350,000 compounds, 1.6% hits;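 active means significant combined selectivity score with lowered wild-type GFP, culture density cut under 30%, mutant RFP and density less affected; inactive means any of these conditions unmet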; further: one replicate is shown; some compounds called inactive have numbers as strong as hits
Ecoli rRNA inh OD600 = also measured in Ecoli rRNA inh; calls as there; OD600 change, %; measured here: OD600 growth;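 optical density of the mix in the first replicate; 0 = DMSO median and -100 = no signal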
Ecoli rRNA inh RFP = second read-out of Ecoli rRNA inh, no call of its own (marks repeat the call); RFP signal change, %; measured here: RFP humanized mutant strains;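 first replicate; 0 = DMSO median and -100 = no signal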
The depositor's hits bear a star; i = inactive; ? = inconclusive; . = no result given.

compound	FGF22 binding	RanGTP-Impb inh	MLL AF4-AF9 inh	Beta cell apopt	ALR inh	T cruzi inh	Calb FLC	Ecoli rRNA inh	Ecoli rRNA inh OD600	Ecoli rRNA inh RFP
Cc1ccc(C2CC(=O)c3cnn(-c4nc(C)cc(C)n4)c3C2)cc1 (stereo not given)	i	-4.4	-1.0	-1	-6	-3	29	2	-8	-0.9
O=C(O)C1CC=CCC1C(=O)NC12CC3CC(CC(C3)C1)C2 (stereo not given)	.	-1.9	.	-4	0	-10	7	.	.	.
COc1ccc(NC(=O)c2ccccc2NC(=O)c2ccco2)c(OC)c1	.	4.6	.	-26	0	4	-2	.	.	.
Cc1ccc(-n2ncc3c(NCc4ccco4)ncnc32)cc1C	i	1.0	0.3	9	.	3	57	4	5	0.1
O=C(NCc1ccco1)/C(=C/c1ccc(Cl)cc1)NC(=O)c1ccco1	i	5.7	1.0	-11	-8	4	8	7	3	0.8
CCOc1ccc(C(=O)NC(=S)Nc2ccc(NC(=O)c3ccco3)cc2)cc1[N+](=O)[O-]	.	-2.3	.	-2	36	-7	-4	.	.	.
O=C(Cn1nc(C(=O)O)c2ccccc2c1=O)Nc1cc(S(=O)(=O)N2CCOCC2)ccc1Cl	i	.	-0.3	-1	-2	.	.	2	6	1.1
O=C(Cc1ccccc1Cl)N/N=C/c1cccnc1	i	-0.6	-2.6	-4	2	-4	1	12	10	3.1
Cc1ccc(S(=O)(=O)CCNC(=O)Cc2ccc(Cl)cc2)cc1	i	0.0	-1.0	.	-6	3	-10	4	-1	1.6
CN1C(=O)c2cccc(N(C)C)c2C1=O	i	2.1	-12	-5	-3	-10	19	6	4	-0.1
COc1cccc(-c2ccc(NC(=O)C3CCCN(CCCn4nc(C)cc4C)C3)cc2)c1 (stereo not given)	i	5.1	4.9	1	-80	25	11	-53	-75	-15
O=C(O)CSc1ncnc2scc(-c3ccc(Br)cc3)c12	i	7.4	-3.2	-5	.	-5	-8	0	-11	-5.7
COc1cc(S(=O)(=O)Nc2c(C)cc(C)cc2C)ccc1Cl	.	2.8	.	-4	-6	-1	1	.	.	.
Cc1ccc2cccc(OCc3ccccc3)c2n1	i	0.1	-5.4	-5	-15	-2	-2	-26*	7.0*	-0.1*
CCCn1c(C)cc(/C=C(\C#N)C(=O)O)c1C	i	-2.3	-0.9	11	28	-3	-3	6	3	2.3
CC(=O)Oc1cc2cccc(OC(C)=O)c(=O)c2c(OC(C)=O)c1OC(C)=O	.	11	.	-4	99*	18	48	.	.	.
O=S(=O)(c1ccccc1)N1CCN(c2nc(-c3cccs3)nc3ccccc23)CC1	.	4.8	.	-5	-2	12	-6	.	.	.
O=C(Cn1cc2c(n1)CCCC2)NCCCN1CCN(C2CCCCC2)CC1	i	-2.8	-0.8	-3	-3	12	-8	9	13	1.0
Cn1c(OCc2cccnc2)nc2c1c(=O)n(Cc1ccc(Br)cc1)c(=O)n2C	.	2.2	.	-4	-2	13	-9	.	.	.
COc1cccc(CC(NC(C)=O)C(=O)NC2CCN(S(=O)(=O)c3ccc(NC(C)=O)cc3)CC2)c1OC (stereo not given)	i	-2.7	-0.1	.	-23	5	2	6	10	-0.8
CC(=O)N1CCC2(CC1)CC(=O)c1cc(Cl)ccc1O2	.	1.4	.	3	-1	-15	2	.	.	.
N/C(=N\OC(=O)CCC1CCCC1)c1ccc([N+](=O)[O-])cc1	i	0.3	6.3	1	1	-2	-20	-2	-4	-4.6
COCCCNC(=O)c1ccc(S(=O)(=O)c2ccc(Cl)cc2)c(NC(C)=O)c1	i	5.1	-3.1	.	.	3	-3	-5	11	1.1
CSc1cc(C)n(-c2ccccc2)c(=S)c1C(C)=O	.	1.4	.	-3	.	-6	-8	.	.	.
CN(CCC#N)C(=O)COC(=O)c1ccc(CNS(=O)(=O)c2ccc(F)c(Cl)c2)cc1	.	-0.7	.	-5	-2	-23	-2	.	.	.
COc1ccc(C2CCCN2C(=S)Nc2ccccc2C)cc1OC (stereo not given)	i	-3.7	-13	-4	28	1	-3	-4	-6	-5.1
FC(F)Sc1nc2ccccc2[nH]1	i	0.7	-3.0	-5	61	-8	-9	-13	-4	3.1
COc1cccc(/C=C/C(=O)OCC(=O)NC2CC2)c1	i	.	-5.7	-4	0	.	.	2	-5	-2.2
CCn1cc(C(C)NC(=O)COc2ccc(Cl)cc2C)c(C)n1 (stereo not given)	.	-7.4	.	-1	-6	11	-1	.	.	.
CCCN(C(=O)COC(=O)CCOc1ccccc1C)c1c(N)n(Cc2ccccc2)c(=O)[nH]c1=O	i	?	-2.4	0	-6	-12	-3	19	23	6.8
CCCn1c(=O)c(/C(N)=N/O)nn(-c2cccc(C(F)(F)F)c2)c1=O	i	-3.0	-4.2	-2	2	-11	-2	1	2	-0.1
COC(=O)c1sccc1NC(=O)Nc1ccc(C(C)=O)cc1	i	.	-0.2	3	15	.	-19	-4	3	1.1
Cc1onc(-c2c(Cl)cccc2Cl)c1C(=O)N1CCN(c2ccccc2)CC1	i	-2.2	2.9	0	-9	7	?	-24	-32	-3.5
COc1ccc(CNC(=O)c2sccc2C)cc1	.	-0.1	5.5	-1	2	-9	-2	8	-6	-1.4
Cc1noc(C)c1-c1ccc2ncnc(NC(C)c3ccco3)c2c1 (stereo not given)	i	.	0.4	0	2	.	.	-17	-12	-9.3
Cc1ccccc1C(=O)NN(C)c1nc2ccccc2nc1C(F)(F)F	.	-0.4	.	-5	-2	-3	-3	.	.	.
Nc1ncnc2c1ncn2[C@H]1C[C@H](O)[C@@H](COP(=O)(O)O)O1	i	-1.4	-9.9	-11	-8	1	12	.	.	.
Cc1ccccc1OCc1nc2ccc(S(=O)(=O)N3CCOCC3)cc2[nH]1	.	.	.	-2	31	12	7	.	.	.
CCCCNC(=S)Nc1ccccc1F	.	0.1	.	.	-16	-41	-4	.	.	.
Cn1sc(NC(=O)c2ccccc2)nc1=O	.	-1.6	.	2	89*	-16	0	.	.	.
CCc1ccccc1NC(=O)CSc1nnc(Cn2nnc3ccccc32)n1C	.	-1.4	.	1	-9	-1	-20	.	.	.
O=C1Nc2ccccc2C1(O)c1ccccc1 (stereo not given)	i	0.2	-3.8	1	5	0	-2	-4	0	0.4
O=C(NCc1ccco1)Nc1ccc(Br)cc1Cl	.	1.6	.	0	10	10	-7	.	.	.
O=C(NCc1ccco1)c1ccccc1O	i	-4.5	0.4	.	1	12	2	5	-4	-4.1
CC(c1cccs1)N(C(=O)Nc1ccccc1)C1CCCCC1 (stereo not given)	.	-0.3	.	0	0	-3	10	.	.	.
Cc1ccc(NC(=O)c2cnccn2)cc1C	i	6.4	-2.8	0	4	-4	5	4	16	0.4
O=S1(=O)C=CC(Nc2cccc(Cl)c2)C1 (stereo not given)	i	-0.1	1.3	-6	.	-17	-24	11	1	-5.6
COc1cc(OC)cc(-c2c(-c3ccc(F)cc3)c3cc(-c4ccc5[nH]ccc5c4)ccc3n2C)c1	i	.	.	16	-4	.	.	9	13	-1.4
CC(SC#N)C(=O)C12CC3CC(CC(C3)C1)C2 (stereo not given)	i	?	-1.4	-20	6	-2	-25	-4	-7	-0.1
CC(=O)Nc1ccc(C(=O)Nc2ccc(S(=O)(=O)N3CCOCC3)cc2)cc1	i	5.6	-3.7	-4	-10	1	-12	6	5	-0.7

Other entries follow.
compound	FGF22 binding	RanGTP-Impb inh	MLL AF4-AF9 inh	Beta cell apopt	ALR inh	T cruzi inh	Calb FLC	Ecoli rRNA inh	Ecoli rRNA inh OD600	Ecoli rRNA inh RFP
CCN(CC)C(=O)CSc1nc2ccccc2c(=O)n1OC(C)C	.	0.5	.	-18	2	1	-6	.	.	.
CCOC(=O)c1c(CN2CCN(CCO)CC2)n(C)c2cc(Br)c(OC)cc12	.	5.5	.	-6	-8	24	5	.	.	.
C[C@H](NC(=O)c1cc2c([nH]c3ccccc32)c(-c2ccccc2)n1)C(=O)O	i	0.1	-3.0	-7	-8	-6	0	-12	-7	0.0
Cc1c(C(=O)Nc2ccc3c(c2)OCCO3)sc2nc(-c3ccccc3)cn12	.	5.2	.	49	-9	22	-5	-20	-27	-1.5
CCOc1ccc(NC(=S)NC2CC3CCC(C2)N3Cc2ccco2)cc1 (stereo not given)	i	2.9	6.8	-9	6	-2	-25	15	4	1.4
Cc1ccnc(OC(C(=O)O)C(OCc2ccccc2)(c2ccccc2)c2ccc(C(F)(F)F)cc2)n1 (stereo not given)	i	0.9	-4.9	7	.	2	20	0	-14	21
C/C(=N/NC(=O)CNC(=O)COc1ccccc1)c1ccc(Cl)cc1	i	-11	-1.0	-5	1	10	-14	5	13	-1.3
CCc1c(C)nc(N)c(C#N)c1-c1ccccc1	i	0.3	-0.4	-9	-5	1	5	7	12	1.5
Clc1ccccc1-c1csc(Nc2cccnc2)n1	i	4.0	-4.8	1	.	26	-3	.	.	.
CCCC(C(=O)NC1CCCC1)N(Cc1ccccc1)C(=O)c1snc(C(N)=O)c1N (stereo not given)	i	0.9	-0.3	0	.	0	8	1	-1	2.0
O=C1c2ccccc2NC(c2ccco2)N1NS(=O)(=O)c1ccccc1 (stereo not given)	.	0.6	-0.5	.	-2	4	31	6	0	-3.5
O=C(COc1ccc(Cl)cc1Cl)Nc1cccc(-c2ccc(N3CCOCC3)nn2)c1	i	1.1	-11	.	.	-7	-2	9	17	3.1
COc1cc(/C=C/C(=O)OCC(=O)NCc2ccc(F)cc2)ccc1O	i	.	-5.2	-6	.	.	.	-14	-20	-3.2
Cc1ccccc1OCC(=O)N/N=C/c1cn(C)c2ccccc12	i	1.9	-2.8	.	1	14	-3	9	3	-1.4
O=C(NCCCn1ccnc1)c1cc([N+](=O)[O-])cc([N+](=O)[O-])c1	i	2.1	8.7	1	-34	32	-12	22	3	4.7
COC(=O)c1ccc(/C=N/OCC(=O)NCc2ccc(F)cc2)cc1	i	1.0	-5.2	-1	-8	-10	4	-15	18	0.8
CC1(C)CC(C(CC(=O)O)c2ccccc2)CCO1 (stereo not given)	i	2.7	2.7	2	-9	-16	2	6	12	8.7
CC(=O)c1cccc(NCC(=O)Nc2cccc(S(=O)(=O)N3CCCCC3)c2)c1	i	3.7	6.4	4	-14	-5	-3	-3	-30	0.3
Cn1c(=O)c(C(=O)CSc2nncs2)c(N)n(Cc2ccccc2)c1=O	i	2.1	-37	.	11	-3	17	5	0	-2.2
Cc1c(NC(=O)c2ccco2)cccc1C(=O)NN1C(=O)c2ccccc2C1=O	i	3.6	-2.3	-5	0	-5	-19	14	9	-4.0
COC(=O)C1=C(N)N(c2ccccc2C(F)(F)F)C2=C(C(=O)CCC2)C1c1ccc2c(c1)OCO2 (stereo not given)	.	1.7	.	1	2	56*	29	.	.	.
CC(=O)Nc1ccc(/C=C/c2noc(-c3ccccc3O)n2)cc1	.	1.8	.	3	-5	-10	-4	.	.	.
Cc1cccc(C)c1NC(=O)CNC(=O)c1cccnc1	i	2.5	-3.3	0	-3	-12	-1	4	6	-0.9
CC(C)CCn1c(Sc2nc3ccccc3s2)nc2c1c(=O)[nH]c(=O)n2C	.	?	.	1	37	26	-2	.	.	.

The list is partial; rates above refer to the full screens.
